Screening results (PubChem)
Arbovirus inh: blocks arbovirus infection | arbovirus infection cell-based antiviral screen | inhibition, % at 10 µM | 200,000 compounds, 0.37% hits;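 active = inhibition from about 30%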;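 note: bluetongue infection of BSR cells; cell survival read as ATP light after 72 h; 0% = infected wells without compound and 100% = uninfected wells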
RecA intein inh: Mtb RecA intein splicing inhibition | P9WHJ3 | cell-free RecA intein splicing, fluorescence | inhibition, %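 (about 9 µM by stock and volumes)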 | 290,000 compounds, 0.75% hits; in the data active = inhibition above about 30%; inconclusive = no clear call, values can overlap the other calls;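 note: 0% = vehicle wells and 100% = reference inhibitor control wells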
Target sequence (P9WHJ3 whole entry, looked up): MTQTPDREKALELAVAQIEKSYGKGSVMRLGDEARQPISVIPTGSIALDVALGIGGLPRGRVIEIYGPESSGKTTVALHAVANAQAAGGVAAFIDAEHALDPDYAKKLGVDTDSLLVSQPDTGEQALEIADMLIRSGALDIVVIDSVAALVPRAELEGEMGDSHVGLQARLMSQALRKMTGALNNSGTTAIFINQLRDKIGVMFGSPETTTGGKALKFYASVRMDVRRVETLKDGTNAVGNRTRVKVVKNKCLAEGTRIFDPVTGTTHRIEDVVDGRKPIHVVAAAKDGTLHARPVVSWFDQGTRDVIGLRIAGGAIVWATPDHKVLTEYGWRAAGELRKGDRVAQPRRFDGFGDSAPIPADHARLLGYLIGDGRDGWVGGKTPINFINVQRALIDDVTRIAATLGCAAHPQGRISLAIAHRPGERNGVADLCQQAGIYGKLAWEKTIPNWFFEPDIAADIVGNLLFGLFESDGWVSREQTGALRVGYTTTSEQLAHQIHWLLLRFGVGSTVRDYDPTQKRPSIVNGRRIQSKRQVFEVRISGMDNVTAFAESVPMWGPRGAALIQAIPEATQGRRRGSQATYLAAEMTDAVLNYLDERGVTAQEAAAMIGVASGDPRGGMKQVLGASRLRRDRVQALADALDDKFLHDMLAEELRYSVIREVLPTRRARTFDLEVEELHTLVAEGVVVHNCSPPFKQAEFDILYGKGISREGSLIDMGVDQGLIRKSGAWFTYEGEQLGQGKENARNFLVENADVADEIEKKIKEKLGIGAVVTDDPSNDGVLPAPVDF
Mtb growth: M. tuberculosis H37Rv growth inhibitors, H37Rv strain (AID 1626) | M. tuberculosis H37Rv growth inhibition; higher % means a stronger effect | inhibition, % at 10 µM; hits with a dose series show IC50 in µM | 220,000 compounds, 0.95% hits;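 active = confirmed in a dose series; inconclusive = inhibition above 80% but not taken into the dose series; inactive = below 80% or under 30% at every dose of the series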;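 note: bacteria incubated seven days before Alamar blue readout; 0% = bacteria only wells and 100% = bacteria with antibiotic wells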
YopH inh: inhibitors of Yersinia enterocolitica YopH tyrosine phosphatase | 140,000 compounds, 0.16% hits | fluorescence Ex485/Em525 | inhibition, %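 (about 10 µM by stock and volumes)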;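 active = inhibition of 50% or more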;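 note: controls were vehicle for no effect and minimum signal wells for full effect; inactives centre near -20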
Mtb betalactam: beta-lactam sensitization of Mtb H37Rv. 330,000 compounds, 0.27% hits. inhibition, % at 25 µM. AID 434955. M. tuberculosis H37Rv growth with meropenem, percent inhibition; hits of this screen are not shown here;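 active = about 74% or more and at least 40 points above the plate without the antibiotic, then above 30% in a dose series; inconclusive = first-round hits that could not be retested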;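 note: growth measured after seven days incubation then overnight dye step; 0% = bacteria only wells and 100% = bacteria with antibiotic; twin plates without the antibiotic show which effects depend on it; some results filed as inactive read as strong as hits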
Arbovirus inh repeat: second read-out of Arbovirus inh, no call of its own (marks repeat the call); inhibition, %; measured here: 10K subset replicate screen; many hits read low in the repeat;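 first of two repeat runs on a subset; 0% = infected and 100% = uninfected wells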
Numbers without * were called inactive; & = joins results of further samples.

Screening O=C(c1ccncc1)N(Cc1cc2ccccc2[nH]c1=O)C1CCCCC1 returned Arbovirus inh 5.8, RecA intein inh 0.8, Mtb growth -4.5%, YopH inh -19.8 and Mtb betalactam -4.1.
For CCCC(C)C(=O)NC1CCSC1=O (centres undefined) the results were Arbovirus inh 4.2, RecA intein inh -4.1, Mtb growth -1.5%, YopH inh -29.2 and Mtb betalactam -3.6.
`CC1CCCCC1NC(=O)C1Cc2ccccc2CN1S(C)(=O)=O` (centres undefined) gave Arbovirus inh 2.7, RecA intein inh 11.2, Mtb growth 0.1%, YopH inh -31.9 and Mtb betalactam 4.1.
CC(C)c1nnc(SCc2ccc(CSc3nnc(C(C)C)n3N)cc2)n1N was read as Arbovirus inh 3.8, RecA intein inh -3.5, Mtb growth -5.1%, YopH inh -3.8 and Mtb betalactam -6.2.
NC(=O)OCC(COC(N)=O)c1ccccc1 was read as Arbovirus inh -3.2, RecA intein inh 2.0&-1.1, Mtb growth -10.9%&-11.4%, YopH inh -43.1 and Mtb betalactam 1.8&-9.2.
Screening COc1ccc(NC(=O)O/N=C/c2ccccc2)cc1 returned RecA intein inh 0.6 and Mtb betalactam 5.2.
`CSc1ncc(/C=C2/C(=O)NC(=O)N(C)C2=O)cn1` gave Arbovirus inh 9.4, RecA intein inh -3.0, YopH inh -22.0 and Mtb betalactam -5.2.
`Cc1ccccc1OCCNc1cc(N2CCN(CCO)CC2)ccc1[N+](=O)[O-]` gave Arbovirus inh -28.6, RecA intein inh 3.3, Mtb growth 27.5%, YopH inh -27.1 and Mtb betalactam 66.8.
COc1cccc2c1C(CO)N1C(C#N)C3CC(C(=O)O)C(C1C2)N3C (centres undefined) was read as Mtb growth inconclusive and Mtb betalactam 100.1.
For Cc1nc(-n2nnc3cc(C)c(C)cc32)c2c3c(sc2n1)CCCC3 the results were Arbovirus inh 1.9, RecA intein inh 4.4, Mtb growth -1.1%, YopH inh -26.1 and Mtb betalactam -8.8.
`COc1ccc(/C=C/C(=O)NC(=S)NN2CCCCC2c2cccnc2)cc1OC` (centres undefined) gave Arbovirus inh 1.1, RecA intein inh -0.5, Mtb growth 4.0%, YopH inh -8.1 and Mtb betalactam 3.3.
`N#CC1=C2SCN(c3ccccc3)CN2C(=O)CC1c1c(Cl)cccc1Cl` (centres undefined) gave Arbovirus inh -1.7, RecA intein inh 3.9, Mtb growth 4.8%, YopH inh -58.8, Mtb betalactam -0.3 and Arbovirus inh repeat -5.6.

Among those listed so far, these have a cyano group.
COc1cccc2c1C(CO)N1C(C#N)C3CC(C(=O)O)C(C1C2)N3C (centres undefined) was read as Mtb growth inconclusive and Mtb betalactam 100.1.
`N#CC1=C2SCN(c3ccccc3)CN2C(=O)CC1c1c(Cl)cccc1Cl` (centres undefined) gave Arbovirus inh -1.7, RecA intein inh 3.9, Mtb growth 4.8%, YopH inh -58.8, Mtb betalactam -0.3 and Arbovirus inh repeat -5.6.

2 compounds drawn at random from the list so far:
COc1cccc2c1C(CO)N1C(C#N)C3CC(C(=O)O)C(C1C2)N3C (centres undefined) was read as Mtb growth inconclusive and Mtb betalactam 100.1.
`COc1ccc(/C=C/C(=O)NC(=S)NN2CCCCC2c2cccnc2)cc1OC` (centres undefined) gave Arbovirus inh 1.1, RecA intein inh -0.5, Mtb growth 4.0%, YopH inh -8.1 and Mtb betalactam 3.3.

The results go on:
`Cc1ccc(OCC(=O)Nc2nnc(C3CCCO3)s2)c(Br)c1` (centres undefined) gave Arbovirus inh -6.9, RecA intein inh -3.1, Mtb growth -2.5% and Mtb betalactam -6.8.
For COc1ccc(N2CCN(C(=O)CSc3nnc(NC(=O)C4CC4)s3)CC2)cc1 the results were Arbovirus inh 0.6, RecA intein inh 0.3, Mtb growth 5.2% and Mtb betalactam -2.1.
For CC(C)(C)C(=O)Nc1cccc(C(=O)Nc2cc(C(=O)O)cc(C(=O)O)c2)c1 the results were Arbovirus inh 10.5, RecA intein inh 1.3, Mtb growth -2.9%, YopH inh -26.8 and Mtb betalactam -3.4.
`CCCC(c1nnnn1CCOC)N1CCN(c2cccc(OC)c2)CC1` (centres undefined) gave Arbovirus inh -2.1, RecA intein inh -3.7, Mtb growth 6.2% and YopH inh -18.3.
For Cc1cccc(-n2nnnc2SCC(=O)Nc2cccc(S(N)(=O)=O)c2)c1 the results were RecA intein inh 1.2, Mtb growth -8.2% and Mtb betalactam -5.8.
CCOc1cc(CNCc2cccs2)cc(Br)c1OCC was read as Arbovirus inh 3.9, RecA intein inh 1.5, Mtb growth 1.8%, YopH inh -8.5 and Mtb betalactam 77.6.
For O=C(Nc1cccc(-c2nnc(-c3ccccc3)o2)c1)c1ccc(Br)o1 the results were Arbovirus inh -7.3, RecA intein inh 3.4, Mtb growth 7.8%, YopH inh -21.5 and Mtb betalactam -9.4.
`N#C/C(=C(/O)COC(=O)c1ccc(Cl)c(S(=O)(=O)N2CCOCC2)c1)c1nc2ccccc2[nH]1` gave Arbovirus inh -8.6, RecA intein inh -0.2, Mtb growth 12.6%, YopH inh -12.1 and Mtb betalactam -1.4.
CCOc1ccc(C(=O)C2CCN(CC(=O)Nc3ccccc3N3CCOCC3)CC2)cc1 was read as Arbovirus inh -2.4, RecA intein inh -1.3, Mtb growth 75.1%, YopH inh -26.6 and Mtb betalactam 98.8.
CC1(C)CC(=O)C2=C(C1)N(c1ccccc1)C(=O)CC2c1ccsc1 (centres undefined) was read as Arbovirus inh -4.4, RecA intein inh 0.1, Mtb growth -1.1%, YopH inh -15.6 and Mtb betalactam -6.7.
`Cn1c(=O)c2ncn(CC(=O)NCCC3=CCCCC3)c2n(C)c1=O` gave Arbovirus inh 9.7, RecA intein inh -0.8, Mtb growth -7.3%, YopH inh -26.3 and Mtb betalactam -6.8.
For O=C(c1cccc(F)c1F)N1CCCc2ccccc21 the results were RecA intein inh -4.9 and Mtb betalactam -2.6.
Screening COc1ccc(N2CCN(C(=O)COC(=O)c3cc(S(=O)(=O)N(C)C)ccc3N3CCCC3)CC2)cc1 returned RecA intein inh -4.8 and Mtb betalactam -11.8.
Screening CCOC(=O)c1ccc(NC(=S)N2CCC(C(N)=O)CC2)cc1 returned Arbovirus inh -4.3, RecA intein inh -2.7, Mtb growth inconclusive, YopH inh -26.5 and Mtb betalactam 8.5.
Screening COc1ccc(Oc2c(C=O)c3ccccc3n2C)cc1 returned Arbovirus inh -8.6, RecA intein inh -2.6, Mtb growth 6.7%, YopH inh -4.6 and Mtb betalactam -6.6.
Screening CCN1CCN(C(=O)CCc2nnc(CCc3ccc(OC)cc3)o2)[C@@H](C)C1=O returned RecA intein inh -1.0 and Mtb betalactam 6.9.
Screening O=C(NCc1ccccc1Cl)c1cnccn1 returned Arbovirus inh 1.5, RecA intein inh 0.3, Mtb growth 2.9%, YopH inh -5.5 and Mtb betalactam -3.4.
`COC(=O)c1cn(NC(=O)Cc2c(F)cccc2Cl)c(=O)c2ccccc12` gave Arbovirus inh -5.9, RecA intein inh 0.6, Mtb growth -4.5% and Mtb betalactam 0.1.
Screening O=C(NC(=S)Nc1ccc2[nH]c(=O)[nH]c2c1)c1cccc(F)c1 returned RecA intein inh 1.4 and Mtb betalactam 8.5.
`O=C1CCN(Cc2cccnc2)CCN1[C@H](CO)Cc1ccccc1` gave RecA intein inh -1.5 and Mtb betalactam -3.2.
For COc1cc(NC(=O)c2ccc(-c3ccc(Br)cc3)o2)ccc1NC(=O)C(C)C the results were Arbovirus inh -13.9, RecA intein inh -2.2, Mtb growth 12.0%, YopH inh -19.5 and Mtb betalactam -8.7.
COc1cccc(C(=O)Nc2ccc(N3CCCC3)cc2)c1 was read as Arbovirus inh -9.9, RecA intein inh 0.4, Mtb growth -2.7%, YopH inh -24.8 and Mtb betalactam 1.9.
`CC(C)Oc1ccc(C(=O)NC2(C(F)(F)F)NC(=O)N(CCCc3ccccc3)C2=O)cc1` (centres undefined) gave Arbovirus inh -21.2, RecA intein inh 1.8, Mtb growth 4.0%, YopH inh -25.4 and Mtb betalactam 4.6.
Screening O=C(CSCc1cccc(CSCC(=O)Nc2ccccc2)n1)Nc1ccccc1 returned Arbovirus inh 0.3, Mtb growth -1.9%, YopH inh -0.5 and Mtb betalactam -1.9.
`C/C(=N\NC(=O)CNC(=O)c1ccncc1)c1ccc(C)cc1` gave Arbovirus inh -2.2, RecA intein inh -0.7, Mtb growth 0.6% and Mtb betalactam 0.5.
For O=C(c1ccccc1)N1CCN(S(=O)(=O)N2CCCCCC2)CC1 the results were RecA intein inh 1.0 and Mtb betalactam 3.8.
`Cc1cccc(NS(=O)(=O)c2ccc3c(c2)oc(=O)n3C)c1C` gave RecA intein inh -2.2 and Mtb betalactam -3.3.
CCCc1cc(=O)[nH]c(SCc2nc3ccccc3o2)n1 was read as RecA intein inh 0.5 and Mtb betalactam 0.1.
For CCOC(=O)N/N=C/c1cc(C)n(-c2cccc3ccccc23)c1C the results were Arbovirus inh 15.3, RecA intein inh 1.9, Mtb growth 3.4%, YopH inh 10.7 and Mtb betalactam 1.2.
Screening O=C(c1ccc(Cl)cc1)c1cc([N+](=O)[O-])ccc1N1CCOCC1 returned Arbovirus inh -27.6, RecA intein inh -5.3, Mtb growth -1.1% and Mtb betalactam 5.6.
NNC(=O)c1cccc(COc2ccc3c(c2)CCC3)c1 was read as Arbovirus inh -6.2, RecA intein inh 9.9, Mtb growth 7.5%, YopH inh -33.9 and Mtb betalactam -6.6.
Screening COc1cccc(C(=O)CC(=O)C(=O)Nc2ccc(C)cc2Cl)c1 returned RecA intein inh 10.2 and Mtb betalactam 4.6.
Screening O=C(O)CC/C(=C\c1cccc(NC(=O)c2ccccc2Cl)c1)c1nc2ccccc2s1 returned Arbovirus inh 28.1, RecA intein inh -2.1, Mtb growth -3.5% and Mtb betalactam 9.1.
Cc1ccc(C)c(S(=O)(=O)Nc2ccc(O)c3ccccc23)c1 was read as RecA intein inh 95.2* and Mtb betalactam 7.2.
`COC(=O)C1=C(C)N(Cc2ccco2)C(=O)/C1=C\c1ccc(N(C)C)cc1` gave Arbovirus inh -9.6, RecA intein inh -1.5, Mtb growth -8.6%, YopH inh -15.5 and Mtb betalactam 5.3.
For O=C(CNC(=O)c1ccc(F)cc1)N/N=C/c1cccnc1 the results were RecA intein inh 1.4 and Mtb betalactam -4.8.
O=C(O)Cc1ccc2ocnc2c1 was read as Arbovirus inh 13.2, RecA intein inh -3.7, Mtb growth -2.2%, YopH inh -37.2 and Mtb betalactam 3.3.
For CNC(=S)c1cc(C(C)(C)C)c(O)c(C(C)(C)C)c1 the results were RecA intein inh -0.5, Mtb growth 4.5% and Mtb betalactam -7.6.
Screening O=C(CC1SC(=NCCc2ccccc2)N(/N=C/c2cccs2)C1=O)Nc1ccc(Cl)cc1 (centres undefined) returned Arbovirus inh -13.2, RecA intein inh -1.5, Mtb growth 17.7%, YopH inh -34.8 and Mtb betalactam 0.3.
`COc1ccc(C2/C=C\CN(C(=O)c3ccc(C)cc3)[C@H](Cc3ccccc3)C(=O)N2Cc2ccc(F)cc2)cc1` (some centres undefined) gave RecA intein inh 8.2, Mtb growth 6.6% and Mtb betalactam -1.4.
Screening CC1=C(C(=O)Nc2ccccc2)C(c2cccc([N+](=O)[O-])c2)Nc2nc3ccccc3n21 (centres undefined) returned Arbovirus inh -1.0, Mtb growth 8.9%, YopH inh -33.4 and Mtb betalactam 84.3.
`CC(C)c1ccc(NC(=O)NCc2ccc(F)cc2)cc1` gave Arbovirus inh -5.5, RecA intein inh 2.6, Mtb growth 14.6% and Mtb betalactam -2.5.
Screening CCC1SC2=NCN(c3ccccc3)CN2C1=O (centres undefined) returned Arbovirus inh 5.6, RecA intein inh 3.9, Mtb growth -5.1%, YopH inh -35.4 and Mtb betalactam 27.8.
Screening CSCC[C@H](NC(=O)Nc1ccc(C)cc1)C(=O)O returned Arbovirus inh 5.7, RecA intein inh -0.5, Mtb growth -15.5%, YopH inh -17.9 and Mtb betalactam 4.9.
Screening COC(=O)c1cc(OC(=O)CCc2ccc(OC)c(OC)c2)cc(C(=O)OC)c1 returned RecA intein inh 6.3 and Mtb betalactam -1.5.
CN(C(=O)COC(=O)C1=COCCO1)c1c(N)n(Cc2ccccc2)c(=O)[nH]c1=O was read as RecA intein inh 0.3 and Mtb betalactam -0.4.
`CCOc1cc(/C=N/NC(=O)c2cc(C)[nH]n2)ccc1OC(=O)c1ccc([N+](=O)[O-])cc1` gave Arbovirus inh -14.2, RecA intein inh -2.1, YopH inh -24.6 and Mtb betalactam 71.5.
For CCCCNC(=O)C(Sc1ccccc1)c1ccccc1 (centres undefined) the results were Arbovirus inh -3.0, RecA intein inh -1.1, Mtb growth 5.4%, YopH inh -28.9 and Mtb betalactam 0.2.

The list is partial (hit frequency here may not be typical).
